TSHR agonist = agonists of human thyroid stimulating hormone receptor. P16473. HEK293-CNG-TSHR cells (CNG channel as cAMP sensor), membrane potential dye, cAMP. Potency, µM (highest dose often 57.1 µM), inactives show top-dose activation, actives largely listed as activators. 0.48% of 73,000 active; active = well fitted activation curve of enough size with the parental cells flat; inconclusive = any curve in the parental cells; inactive = parental cells flat and receptor cells flat or falling; also: potency is read from the fitted curve at half-maximal effect; % of control where 0% means no effect; weak receptor curves with flat parental cells got no call and are not listed
Target sequence (P16473 whole entry, looked up): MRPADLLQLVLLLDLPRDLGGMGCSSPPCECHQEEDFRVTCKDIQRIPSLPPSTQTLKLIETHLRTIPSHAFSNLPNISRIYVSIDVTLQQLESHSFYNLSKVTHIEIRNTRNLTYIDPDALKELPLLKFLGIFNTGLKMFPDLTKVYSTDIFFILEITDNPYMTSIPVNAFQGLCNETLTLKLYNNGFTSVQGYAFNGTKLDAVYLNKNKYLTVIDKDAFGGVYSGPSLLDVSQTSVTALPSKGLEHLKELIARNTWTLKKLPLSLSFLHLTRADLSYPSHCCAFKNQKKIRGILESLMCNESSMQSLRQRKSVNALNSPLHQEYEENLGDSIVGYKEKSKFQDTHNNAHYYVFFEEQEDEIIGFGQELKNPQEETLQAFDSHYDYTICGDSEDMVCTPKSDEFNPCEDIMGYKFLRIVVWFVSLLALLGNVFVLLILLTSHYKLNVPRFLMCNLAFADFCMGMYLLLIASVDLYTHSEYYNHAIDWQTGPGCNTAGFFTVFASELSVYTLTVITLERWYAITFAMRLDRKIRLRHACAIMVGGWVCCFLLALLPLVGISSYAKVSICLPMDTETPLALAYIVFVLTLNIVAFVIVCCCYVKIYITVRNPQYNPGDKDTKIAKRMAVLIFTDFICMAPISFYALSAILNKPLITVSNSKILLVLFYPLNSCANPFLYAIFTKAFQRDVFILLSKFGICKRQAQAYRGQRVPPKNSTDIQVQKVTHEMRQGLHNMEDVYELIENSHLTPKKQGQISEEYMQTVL
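HEK 293 cells stably expressing TSHR and a modified CNG channel, with CNG-only parental cells as counterscreen, were preloaded 60 min at room temperature with membrane potential dye containing 100 uM RO 20-1724. Compound exposure was 30 min, and depolarization was read as fluorescence at 590 nm.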
A647 fluor = A647 region autofluorescence | Compound fluorescence, A647 channel (570/671 nm), Tris buffer | max dye-equivalent concentration, M | 59,000 tested, under 10 active | AID 592; active means above 1 µM dye equivalent; inconclusive means 0.1 to 1 µM; inactive means 0.1 µM or less;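 also: values scaled relative to a standard on each plate; highest value over a series up to 38 µM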
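Tris 100 mM pH 8.0; cpd + A647 stds pin-transferred; 15 min RT; CCD imager, ex 570/em 671. Output = A647-equivalent conc. per cpd conc.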
Resorufin fluor = compound fluoresces in the resorufin spectral region; Compound fluorescence, resorufin region 547/598 nm, buffer; active compounds read high; max dye-equivalent concentration, M; 0.04% of 59,000 active; active = above 10 nM dye equivalent; inconclusive = 1 to 10 nM; inactive = 1 nM or less; a few of its hits are not listed in these tables; also: highest value over a series up to 38 µM
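Intrinsic fluorescence profiled in the resorufin window (ex 547 nm, em 598 nm) after 15 min at room temperature in pH 8.0 Tris buffer (100 mM); responses normalized against a six-point resorufin standard series as dye-equivalent concentration.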
AID923 = qHTS Assay for Allosteric/Competitive Inhibitors of Caspase-1: Spectroscopic Profiling in AFC Spectral Region; compound fluorescence, AFC spectral region (405/520 nm); almost no hit is shown here; Potency, µM (top dose mostly 57.5 µM), inactives show at the highest dose fluorescence increase, most hits filed as activators; 1.1% of 75,000 active; AID 923, 2007; active = well fitted activation curve with a large enough effect; inconclusive = small, poorly fitted or top-dose-only effect;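 also: potency is read from the fitted curve at half-maximal effect; 0% is about no effect; scaled to a free AFC standard on each plate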
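Compound autofluorescence profiled at 405 nm ex/520 nm em during kinetic caspase 1 run (50 nM enzyme, 5 uM Ac-WEHD-AFC, HEPES pH 7.5, 10 mM DTT). Titration up to 57 uM; baseline from regression intercept, normalized to AFC standard curve.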
A488 autofl = compound fluoresces in the A488 spectral region; compound autofluorescence, A488 spectral region, dye equivalency; active compounds read high; max dye equivalency, M; 0.1% of 59,000 active; active = above 10 nM dye equivalent; inconclusive = 1 to 10 nM; inactive = 1 nM or less; about half of its hits are not listed in these tables;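 also: highest value over a series up to 38 µM; compound alone in buffer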
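Intrinsic compound fluorescence is measured in 100 mM Tris buffer at pH 8.0 following 15 min incubation at room temperature. Intensities at 480 nm excitation/540 nm emission are calibrated to an on-plate A488 concentration series, giving dye-equivalent concentrations.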
An asterisk follows results filed as active; i = inactive; ? = inconclusive; / = not tested or not shown; [ ] = another dose, or the depositor's remark. Not all compounds are listed, so the mix of outcomes need not match the whole.

Sample of the layout (3 entries):
SMILES	TSHR agonist	A647 fluor	Resorufin fluor	AID923	A488 autofl
CCOC(=O)N1CCC(NC(=O)c2cc(-c3ccc(F)cc3)[nH]c2C)CC1	2.8%	1e-09	i	0.8%	i
Cc1ccc(S(=O)(=O)NC2(C(F)(F)F)C(=O)Nc3c2c(=O)n(C)c(=O)n3C)cc1 (centres undefined)	-1.6%	3.57e-08	i	-0.3%	i
COc1ccccc1S(=O)(=O)Cc1ccc(C(=O)NC2CCCCC2)o1	6.2%	6.9e-09	i	-1.0%	i

The listing, previewed entries included:
SMILES	TSHR agonist	A647 fluor	Resorufin fluor	AID923	A488 autofl
CCOC(=O)N1CCC(NC(=O)c2cc(-c3ccc(F)cc3)[nH]c2C)CC1	2.8%	1e-09	i	0.8%	i
Cc1ccc(S(=O)(=O)NC2(C(F)(F)F)C(=O)Nc3c2c(=O)n(C)c(=O)n3C)cc1 (centres undefined)	-1.6%	3.57e-08	i	-0.3%	i
COc1ccccc1S(=O)(=O)Cc1ccc(C(=O)NC2CCCCC2)o1	6.2%	6.9e-09	i	-1.0%	i
Cc1ccc(C)c(N2CCN(C(=O)CCNC(=O)Cn3ccc4ccccc4c3=O)CC2)c1	15.0%	1.51e-08	i	-0.2%	i
CCC(C)NC(=O)C1CCN(S(=O)(=O)c2cccnc2)CC1 (centres undefined)	-6.3%	4.12e-08	i	-0.3%	i
Fc1cccc2sc(Nc3nnc(-c4ccco4)o3)nc12	-18.8%	9.1e-09	i	-1.7%	i
O=C(Nc1ccc(NC(=O)C2CCCCC2)cn1)c1ccco1	3.3%	1e-09	i	1.5%	i
Cc1ccc(Cn2ccc(NC(=O)c3noc4c3CCCC4)n2)cc1	/	6.5e-09	i	-2.4%	i
NC(=O)c1nsc(C(=O)N(CCc2ccccc2)C(C(=O)NC2CCCC2)c2ccco2)c1N (centres undefined)	?	1.33e-08	i	8.7%	i
CCc1nnc(SCc2ccc(C(=O)OC)o2)n1N	3.3%	1.94e-08	i	-1.7%	i
Cc1ccc(C(C)NC(=O)c2ccco2)cc1C (centres undefined)	0.9%	/	/	2.3%	/
CC1COC(c2cccn2Cc2ccccc2Cl)=N1 (centres undefined)	14.4%	3.5e-09	i	2.2%	i
COCCCn1c(C2CCCCC2)nc2oc3cc(OC)ccc3c(=O)c2c1=O	18.1%	1.1e-09	i	0.3%	i
CCOc1ccccc1COC(=O)c1cccc(-n2cnnn2)c1	?	1e-09	i	0.9%	i
CCCn1c(-c2cccs2)nc2ccccc21	?	1e-09	i	0.5%	i
Cc1c(C(=O)NCc2cccs2)oc2ccccc12	15.4%	1.38e-08	i	0.1%	i
O=C(COc1ccccc1)NCC(c1cccs1)N1CCOCC1 (centres undefined)	?	2.33e-08	i	0.2%	i
O=C(CCCCCn1c(=O)[nH]c2ccsc2c1=O)NCc1cccs1	-1.5%	1.68e-08	i	0.7%	i
C=CCNC(=O)CCCc1ccccc1	9.2%	/	/	7.9%	/
COc1ccc(N2C(=O)C3CCCN3C2c2ccc(C)cc2)cc1 (centres undefined)	27.5%	/	/	-1.6%	/
O=c1c(-c2ccc(Cl)cc2)[n+]([O-])c2ccccc2n1O	/	1e-09	i	/	i
Cc1cc(NC(=O)CSc2ncnc3sc4c(c23)CCC(C)C4)no1 (centres undefined)	4.5%[11.4 µM]	1.5e-09	i	-0.4%	i
CCSc1nnc(NC(=O)c2cc(C)oc2C)s1	5.6%	2.6e-09	i	-0.7%	i
C=CCn1c(Cc2cccs2)nnc1SCC(=O)Nc1ccc(C(=O)OCC)cc1	19.5%	2.3e-08	i	3.2%	i
COc1cccc(C2C(C#N)=C(N)Oc3cc(C)[nH]c(=O)c32)c1OC (centres undefined)	/	3.51e-08	i	/	i

Next section, starting with the last three of the part before.
SMILES	TSHR agonist	A647 fluor	Resorufin fluor	AID923	A488 autofl
CCSc1nnc(NC(=O)c2cc(C)oc2C)s1	5.6%	2.6e-09	i	-0.7%	i
C=CCn1c(Cc2cccs2)nnc1SCC(=O)Nc1ccc(C(=O)OCC)cc1	19.5%	2.3e-08	i	3.2%	i
COc1cccc(C2C(C#N)=C(N)Oc3cc(C)[nH]c(=O)c32)c1OC (centres undefined)	/	3.51e-08	i	/	i
COC(=O)c1ccccc1NC(=O)C1CC(c2ccc(F)cc2)=NO1 (centres undefined)	?	1.5e-09	i	-0.4%	i
COc1ccccc1C(=O)Nc1ccccc1C(=O)N1CCCC1	3.4%	2.2e-09	i	2.0%	i
CC(C)OC(=O)CCc1nc2ccccc2[nH]c1=O	5.8%	7.09e-08	i	-1.0%	i
CCCCCn1c(SCCN2CCOCC2)nc2c1c(=O)[nH]c(=O)n2C	-1.3%	4.99e-08	i	0.3%	i
Cc1onc(-c2ccccc2Cl)c1C(=O)OCN1C(=O)c2ccccc2C1=O	?	/	/	1.3%	/
CC(C)CN1CC[C@@]2(CCCN(C(=O)c3csnn3)C2)C1	5.5%	4.5e-09	i	1.8%	i
COc1ccccc1CCNC(=O)CSc1nc(-c2ccco2)cc(C(F)(F)F)n1	-0.3%	/	/	-0.9%	/
CCC1(NC(C)=O)CC2CC1CC2NC(C)=O (centres undefined)	-4.7%	3.9e-09	i	-1.0%	i
c1ccc2nc(-c3nc4ccccc4o3)ccc2c1	20.2%	5e-09	i	1.7%	i
CN(C)c1nc(N)nc(CSc2ncc(Cl)cc2Cl)n1	12.8%	2.82e-08	i	1.0%	i
COCCNC(=O)C(c1cccs1)N(C(=O)Cn1nnc2ccccc21)c1ccccc1 (centres undefined)	-3.2%	1e-09	i	-1.6%	i
Cc1nnc(N(C)C(=O)Cc2ccc3c(c2)OCO3)s1	?	8.1e-09	i	1.8%	i
Cn1c(=O)c2c(nc(CN3CCN(C(=O)c4ccco4)CC3)n2Cc2ccc(Cl)cc2)n(C)c1=O	7.4%	2.93e-08	i	-0.8%	i
COC(=O)C1(C)NC(=O)c2ccccc2N1 (centres undefined)	-0.3%	/	/	-0.4%	/
c1ccc2nc(CC[C@@H]3CCCCN3)ccc2c1	1.2%[11.4 µM]	1.2e-09	i	-3.7%[11.5 µM]	i
CN(C(=O)COc1cc(=O)n(C)c2ccccc12)c1cccc(Cl)c1	4.4%	/	/	2.4%	/
Cn1c(=O)[nH]c(=O)c2c1nc(N1CCOCC1)n2CCN1CCOCC1	-1.2%	4.3e-09	i	-1.7%	i
COC(=O)C1=C(C(C)=O)C(c2ccc(C)cc2)n2nnnc2N1 (centres undefined)	-3.3%	2.8e-09	i	0.2%	i
Cc1nn(Cc2ccc(Br)cc2)c(C)c1NC(=O)c1nn(C)cc1Cl	1.3%	1.2e-09	i	-1.5%	i
c1ccc(-n2nnc3c(N4CCOCC4)ncnc32)cc1	-2.4%	1e-09	i	-2.4%	i
O=C(COC(=O)c1ccc[nH]c1=O)NC1CCCC1	0.2%	9.6e-09	i	-1.1%	i
CC1=CC(C)=Nc2ccc(C)cc2N1	-2.1%	6.8e-08	i	1.3%	i
CCc1ccccc1N(CC(=O)NCc1ccco1)C(=O)c1snc(C(N)=O)c1N	17.3%	6.9e-09	i	12.5%	i
O=C(C1CCCN(S(=O)(=O)c2ccc(F)cc2)C1)N1CCCC1 (centres undefined)	0.0%	1e-09	i	-0.9%	i
O=C(Nc1cnn(Cc2ccc(Cl)cc2)c1)C1CCCC1	7.2%	3.89e-08	i	1.1%	i
The listing continues:
SMILES	TSHR agonist	A647 fluor	Resorufin fluor	AID923	A488 autofl
O=C(c1cc(-c2cccc(O)c2)on1)N1CCN(C(c2ccccc2)c2ccccc2)CC1	16.8%	/	/	0.3%	/
O=C(O)C1CC(c2cccc(Br)c2)=NO1 (centres undefined)	12.1%	3.12e-08	i	0.1%	i
Cc1cccc(OCc2nnc(SCc3nc4ccccc4c(=O)[nH]3)o2)c1	7.9%	2.93e-08	i	-1.2%	i
O=C(Cn1nc(-c2ccccc2)ccc1=O)Nc1ccc(N2CCN(C(=O)c3ccccc3)CC2)cc1	-18.4%	1e-09	i	-2.8%	i
CCN1C(=O)/C(=C/N2CCc3ccccc32)SC1=S	?	1.28e-08	i	3.8%	1.27e-08M*
Cc1cc(Cl)cc(C)c1OCCCCn1ccnc1	25.3%	6.3e-09	i	-0.3%	i
CC1(C)CC(=O)c2cnc(NC(=O)CSc3nc4ccccc4o3)nc2C1	15.3%	2.67e-08	i	-0.1%	i
CCCCn1c(SCN2C(=O)c3ccccc3C2=O)nc2cc(S(N)(=O)=O)ccc21	10.8%	2.21e-08	i	0.1%	i
CCN(CC)S(=O)(=O)c1ccc(NC(=O)C2COc3ccccc3O2)cc1 (centres undefined)	1.4%	7.3e-09	i	-0.4%	i
O=C(c1cc(C(F)(F)F)cc(C(F)(F)F)c1)N1CCC2(CC1)CCN(c1ccccc1)CC2	?	1.7e-09	i	1.0%	i
COc1cccc(-c2cc(C(F)(F)F)n3nc(N)nc3n2)c1	/	6.7e-09	i	-0.5%	i
Cc1ccccc1-c1nnn(CC(=O)c2ccc(S(=O)(=O)N3CCCC3)cc2)n1	5.0%	1e-09	i	-0.1%	i
OC[C@@H]1NC[C@@H](O)[C@@H](O)[C@H]1O	-11.0%	1e-09	i	-1.1%	i
CCC(=O)Nc1ccc(C(=O)Nc2ccc3c(c2)C(=O)N(CC2CCCO2)C3=O)cc1 (centres undefined)	-6.0%	4.5e-09	i	6.7%	i
COc1ccccc1S(=O)Cc1ccc(C(=O)NC2CCCC2)o1 (centres undefined)	1.0%	/	/	-1.2%	/
O=C(Cn1nnc(-c2ccc(S(=O)(=O)N3CCCC3)cc2)n1)NCC1CCCO1 (centres undefined)	-2.8%	7.7e-09	i	0.1%	i
O=C(O)c1ccccc1C(=O)N1CC=C(c2ccccc2)CC1	3.1%	1.92e-08	i	1.7%	i
CC(C)C(NC(=O)C1CCCCC1)C(=O)N1CCN(c2ccc(F)cc2)CC1 (centres undefined)	/	4.44e-08	i	-2.2%	i
CCN1CCN(C(=O)c2ccccc2N(Cc2ccccc2)S(C)(=O)=O)CC1	?	3.51e-08	i	2.2%	i
COc1ccccc1NC(=O)c1ccccc1NS(C)(=O)=O	22.9%	1.8e-09	i	2.0%	i
O=C1c2ccccc2C(Nc2ccc(Cl)cn2)N1c1cccnc1 (centres undefined)	?	/	/	3.2%	/
COc1ccc(Cc2ccccc2C(=O)O)c2ccccc12	5.2%[11.4 µM]	1e-09	i	4.8%[11.5 µM]	i
CCCc1cc(=O)oc2cc3occ(C)c3cc12	?	/	/	2.7%	/
CCCC(C)NC(=O)c1ccc(F)cc1 (centres undefined)	7.6%	/	/	3.8%	/
CCC(C)(C)n1nnnc1C(c1ccc(C)cc1)N1CCN(Cc2cccnc2)CC1 (centres undefined)	7.8%	2.33e-08	i	0.5%	i
Next section:
SMILES	TSHR agonist	A647 fluor	Resorufin fluor	AID923	A488 autofl
O=C(Nc1cccc2cccnc12)[C@@H]1[C@@H](C(=O)O)[C@H]2CC[C@@H]1O2	-0.1%[11.4 µM]	1e-09	i	-2.5%[11.5 µM]	i
CCOC(=O)C1=C(C)OC(N)=C(C#N)C1c1ccsc1 (centres undefined)	?	1.3e-09	i	1.9%	i
Cc1ccc(-n2c(SCC(=O)OC(C)C)nnc2-c2ccncc2)cc1	?	4.63e-08	i	-0.9%	i
N#Cc1cc2[nH]c(=O)c(=O)[nH]c2cc1[N+](=O)[O-]	3.0%	/	/	-4.6%	/
CCOc1ccc(NC(=O)c2nccnc2CO)cc1	1.5%	2.88e-08	i	0.6%	i
O=C(O)CCc1nc2ccccc2n(CCc2ccccc2)c1=O	0.5%	5.1e-08	i	2.3%	i
Cc1cc(C)n(CCc2nc3c4ccccc4nc(SCc4ccc(C#N)cc4)n3n2)n1	?	9.2e-09	i	-0.2%	i
Cc1ccc(C2(C)NC(=O)N(CC(=O)Nc3ccc4c(c3)OCO4)C2=O)cc1 (centres undefined)	-6.8%	2.2e-09	i	0.6%	i
Cn1c(C(=O)N2CCCc3ccccc32)cc2c(=O)n3ccccc3nc21	18.3%	1e-09	i	16.5%	i
